MARV entry inh: Marburg virus entry inhibition; Marburg virus pseudotype entry/binding inhibition, cell-based; control for the full effect not named in the record; many of its hits are not listed in these tables; Potency, µM (doses to about 49.2 µM), for the others: top-dose activity change, negative = inhibition, actives largely listed as inhibitors; 6.5% of 18,000 active; AID 720532; active means well fitted inhibition curve with a large enough effect; inconclusive means small, poorly fitted or top-dose-only effect; inactive means no such curve, though single readings can be large or run the other way; tested in HEK293 cells; further: luciferase read-out
Lassa entry: Lassa virus entry inhibition; Lassa virus pseudotyped entry inhibition, cell-based qHTS; control for the full effect not named in the record; many of its hits are not listed in these tables; Potency, µM (series often up to 49.2 µM), inactives show at the top dose activity change, negative = inhibition, hits mostly inhibitors; 4.1% of 18,000 active; active = well fitted inhibition curve with a large enough effect; inconclusive = small, poorly fitted or top-dose-only effect; inactive = no such curve, though single readings can be large or run the other way; tested in HEK293 cells; further: luciferase read-out
* = called active by the depositor; & = joins results of further samples; ! = repeats disagree; [ ] = dose if it differs, or a comment. On the % scale 0 is the no-effect control and ±100 the full control effect; potency means the concentration at half of the fitted maximal effect.

Screening CC[C@H](C)[C@H](NC(=O)[C@H](Cc1ccc(O)cc1)NC(=O)[C@@H]1CCCN1C(=O)[C@H](CCCCN)NC(=O)[C@@H](N)CCCCN)C(=O)N[C@@H](CC(C)C)C(=O)O returned MARV entry inh 8.8% and Lassa entry -6.5%.
COC[C@H]1O[C@@H](c2c(OC)cc(OC)cc2OC)[C@H](OC)[C@@H](OC)[C@H]1OC was read as MARV entry inh -10.3%[8.59 µM] and Lassa entry 2.6%[8.59 µM].
For COC(=O)C=C[C@H]1c2ccccc2[C@@H](OC)[C@@H]1C the results were MARV entry inh -4.4%&16.3%[8.59 µM] and Lassa entry 32.9%[activator][8.59 µM].
CC(C)C[C@@H](CC(=O)N[C@@H](CCC(=O)O)CC(=O)O)NC(=O)[C@@H]1CCCC[C@H]1NC(=O)C[C@@H](NC(=O)C[C@H](Cc1c[nH]c2ccccc12)NC(=O)[C@@H]1CCCC[C@H]1N)C(C)C was read as MARV entry inh -5.2% and Lassa entry -0.6%.
Screening OCCC(O)CO (stereo not given) returned MARV entry inh 2.7%&12.1%&11.4% and Lassa entry 4.1%&-3.2%&16.2%.
N[C@@H](C(=O)N[C@@H]1C(=O)N2C(C(=O)O)=C(Cl)CC[C@H]12)c1ccccc1 was read as MARV entry inh -3.0% and Lassa entry -16.9%.
`Cc1ccccc1-c1cc2c(c3c1ccn3C)C1CCC2O1` (stereo not given) gave MARV entry inh 26.6% and Lassa entry inconclusive.
`Cc1cc(C(=O)Nc2ccccc2-c2nc(CNC(=O)C3(C)CCCCC3)c(C)o2)c(C)o1` gave MARV entry inh -30.4% and Lassa entry 4.7%.
Screening Cc1ccc(C(=O)N(Cc2cc3cccc(C)c3nc2N2CCC(O)CC2)C2CC2)cc1 returned MARV entry inh inconclusive and Lassa entry -26.4%.
For N#Cc1c(Cl)cccc1Cl the results were MARV entry inh 3.7% and Lassa entry -3.6%.
Screening COc1ccc(S[C@@H]2C[C@@H](C(=O)Nc3ccc4nccnc4c3)N(C3Cc4ccccc4C3)C2)cc1 returned MARV entry inh -6.2% and Lassa entry 3.16µM*.
O=C(O)Cc1csc(-c2ccc(Cl)cc2)n1 was read as MARV entry inh 15.6% and Lassa entry -10.5%.
Screening CCC(=O)OC1(C)C(=O)C2=COC(c3ccc(OC)cc3)=CC2=C(Br)C1=O (stereo not given) returned MARV entry inh -10.4% and Lassa entry 7.2%.
Screening COC1=CC(=O)O[C@@H](/C=C\c2ccccc2)C1 returned MARV entry inh 36.5%[activator][17.8 µM] and Lassa entry 9.3%[17.8 µM].
Screening COc1cc(OC)c2c(c1)OC(=O)CC2c1ccc(C)cc1 (stereo not given) returned MARV entry inh -2.1% and Lassa entry -18.7%.
CNc1nc(-c2ccccc2Cl)nc2ccccc12 was read as MARV entry inh 1.4% and Lassa entry -2.8%.
`CCOC(=O)[C@]12C[C@]3(OC)CCN(C(=O)N[C@@H]1c1ccccc1)[C@@H]32` gave MARV entry inh 9.7%[8.59 µM] and Lassa entry inconclusive.
Screening CCCCOCC1CN(CCCC)S(=O)(=O)c2c(cccc2Sc2ccc(SC)cc2)O1 (stereo not given) returned MARV entry inh -15.8% and Lassa entry -20.1%.
`CC(=O)C1=C(C)N(Cc2ccccc2)C(=O)NC1CCc1ccccc1` (stereo not given) gave MARV entry inh 13.9%&3.9%[8.59 µM].
`O=C(O)c1cccc(-c2noc(-c3ccccc3F)n2)c1` gave MARV entry inh 3.16µM* and Lassa entry 8.91µM*.
Screening COc1cc(=O)n2c(c1C(=O)N(C)Cc1nonc1C)CCN(Cc1ccc(C)cc1C)CC2 returned MARV entry inh -15.7% and Lassa entry inconclusive.
Screening Cc1ccc(-c2cccc(-c3cc(=O)oc4ccc(C(C)(C)C)cc34)c2)cc1 returned MARV entry inh -5.8% and Lassa entry -13.4%.
C[N+]1(CCCCC[N+]2(C)CCCC2)CCCC1 was read as MARV entry inh -4.3%&-3.0% and Lassa entry -14.3%[17.8 µM].
`Cc1ccc2c(=O)c3ccccc3n(CCCN)c2c1C` gave MARV entry inh 10µM* and Lassa entry 10µM*!.
`Cc1cnc(-n2ncc(C(=O)NCCN3CCOCC3)c2-c2cccs2)nc1-c1ccc(F)cc1` gave MARV entry inh -6.0% and Lassa entry -17.0%.
`CC(C)(CNC(=O)c1cnn(-c2nccc(-c3cccs3)n2)c1C1CC1)N1CCOCC1` gave MARV entry inh 9.5% and Lassa entry 15.3%.
Screening COc1ccc2c(c1)C(=O)[C@H](OC(=O)N[C@H](C)C1CCCCC1)[C@@H](c1ccc(OC)c(Br)c1)O2 returned MARV entry inh -5.4% and Lassa entry -0.2%.
`C[C@H]1[C@@H](c2ccccc2)Oc2ccc(Cl)cc2S(=O)(=O)N1Cc1cccc(Cl)c1` gave MARV entry inh 19.8% and Lassa entry 3.8%.
Screening CCCCCCCCCCCCCCCC(=O)N[C@@H](COP(=O)(O)O)C(=O)O returned MARV entry inh 10.3%&8.3%&16.7% and Lassa entry 5.4%&-3.3%&3.4%.
Nc1nc(N)nc(NC2CC2)n1 was read as MARV entry inh 21.6% and Lassa entry -10.2%.
Screening CC(C)=CCCC(C)C1CC[C@@]2(C)C3=C(CC[C@@]12C)C1(C)CCC(O)C(C)(C)C1CC3 (stereo not given in full) returned MARV entry inh 7.9% and Lassa entry inconclusive.
Screening CCOC(=O)C1=C[C@@H](OC(CC)CC)[C@H](NC(C)=O)[C@@H](N)C1 returned MARV entry inh inconclusive and Lassa entry -16.9%.
Screening O=S1(=O)N[C@H](Cc2ccccc2)COc2cccc(N3CCCC3)c21 returned MARV entry inh 21.4% and Lassa entry 10.4%.
Cc1cccc2c(N3CCCC3)nc(CNS(=O)(=O)c3ccc4ccccc4c3)nc12 was read as MARV entry inh inconclusive and Lassa entry -18.2%.
Screening COc1cccc([C@@H]2Oc3ccc(OC)cc3C[C@H]2O)c1 returned MARV entry inh -3.9% and Lassa entry -12.1%.
Cc1cccc(CNc2cc(-c3cccnc3)ncn2)c1 was read as MARV entry inh -4.7% and Lassa entry 0.4%.
C=C(C(C)=O)C(O)c1ccc(C(F)(F)F)cc1 (stereo not given) was read as MARV entry inh 11.5% and Lassa entry 2.9%.
Screening C=C[C@H]1CN2CC[C@@H]1C[C@H]2[C@@H](O)c1ccnc2ccccc12 returned MARV entry inh inconclusive and Lassa entry 11.0%&-9.9%[17.8 µM].
Screening CCN1CCC(CC(=O)Nc2n[nH]c3nnc(-c4cccc(F)c4F)cc23)CC1 returned MARV entry inh -17.9%.
CN1CC(O)c2cc(N=NC(N)=O)c(O)cc21 (stereo not given) was read as MARV entry inh 10.3% and Lassa entry -5.5%.

3 compounds from above, ordered by formula weight, largest number first.
`Cc1cnc(-n2ncc(C(=O)NCCN3CCOCC3)c2-c2cccs2)nc1-c1ccc(F)cc1` gave MARV entry inh -6.0% and Lassa entry -17.0%.
Screening C=C[C@H]1CN2CC[C@@H]1C[C@H]2[C@@H](O)c1ccnc2ccccc12 returned MARV entry inh inconclusive and Lassa entry 11.0%&-9.9%[17.8 µM].
CN1CC(O)c2cc(N=NC(N)=O)c(O)cc21 (stereo not given) was read as MARV entry inh 10.3% and Lassa entry -5.5%.

Later entries
Screening CC12C=C(/C=C/c3ccc(Br)cc3)C(C)(C1)[C@H](c1ccc(Br)cc1)CC2=O (stereo not given in full) returned MARV entry inh -10.0% and Lassa entry 4.5%.
CC(C)CC(NC(=O)NC(CCC(=O)O)C(=O)O)C(=O)O (stereo not given) was read as MARV entry inh -16.6% and Lassa entry 6.0%.
`CC(C)(C)C(=O)OCOP(=O)(OCOC(=O)C(C)(C)C)C(C)(Oc1ccc(O)cc1)P(=O)(OCOC(=O)C(C)(C)C)OCOC(=O)C(C)(C)C` gave MARV entry inh -14.6% and Lassa entry -2.6%.
O=C(NCCCCN1CCOCC1)c1cc2ccccc2o1 was read as MARV entry inh -31.3% and Lassa entry -5.5%.
`CCCCC#Cc1nc(NC)c2ncn([C@@H]3O[C@@H](CO)[C@H](O)[C@H]3O)c2n1` gave MARV entry inh 11.2% and Lassa entry -8.0%.
CCC(=O)OCC(=O)[C@@]1(OC(=O)CC)[C@H](C)C[C@H]2[C@@H]3CCC4=CC(=O)C=C[C@]4(C)[C@@]3(F)[C@@H](O)C[C@@]21C was read as MARV entry inh inconclusive and Lassa entry inconclusive.
Screening Cc1ncc(COP(=O)(O)O)c(CN)c1O returned MARV entry inh 0.6% and Lassa entry -8.8%.
Screening Nc1ccc(C(=O)Oc2ccccc2)c(O)c1 returned MARV entry inh 22.3% and Lassa entry -1.1%.
For COC(=O)c1cc(CNC(=O)c2ccccc2OC)cc(NC(=O)c2ccccc2F)c1 the results were MARV entry inh -26.5% and Lassa entry inconclusive.
Screening CC(C)=CCCC(C)=CCON=C1C[C@@H](O)[C@@H](O)[C@@H]2[C@H]3C(=O)N(c4ccc(F)cc4F)C(=O)[C@@H]3CC[C@H]12 returned MARV entry inh inconclusive and Lassa entry 7.9%[8.59 µM].
CC(=O)OC1C=C[C@]2(C)C(CC(OC(C)=O)[C@@]3(C)C4=CC(=O)OC(c5ccoc5)[C@]4(C)CCC23)C1(C)C (stereo not given in full) was read as MARV entry inh -9.3% and Lassa entry -0.7%.
For C=CCOC(=O)N[C@@H](Cc1ccccc1)/C(C(=O)OC)=C(\C)NCc1ccccc1 the results were MARV entry inh 16.8% and Lassa entry 13.5%.
CN1[C@H](CC(=O)c2ccccc2)CCC[C@H]1C[C@@H](O)c1ccccc1 was read as MARV entry inh inconclusive and Lassa entry -3.6%.
For CC(C)(C)OC(=O)N1CCCC(C(=O)Nc2cccc(C(=O)NC3CC3)c2)C1 (stereo not given) the results were MARV entry inh 27.4% and Lassa entry -29.2%.
Screening Cc1ccc(S(=O)(=O)NCCCNS(=O)(=O)c2ccccc2Br)cc1 returned MARV entry inh 14.3% and Lassa entry 12.8%.
For Cc1cc(Cl)cc2c(N=Nc3ccc(S(N)(=O)=O)cc3)c(O)[nH]c12 the results were MARV entry inh -23.8% and Lassa entry -23.8%.
`COc1ccc(O)c(CN2CCC3(CCC(CNC(=O)c4ccco4)O3)CC2)c1` (stereo not given) gave MARV entry inh -30.3% and Lassa entry 6.2%.
`O=[N+]([O-])c1ccc(CN2CC(N3CCN(CC4CC4)CC3)CS2(=O)=O)cc1` (stereo not given) gave MARV entry inh 23.3% and Lassa entry 21.2%.
Screening CC[C@H](C)[C@H](NC(=O)[C@@H]1CCCN1C(=O)[C@H](C)NC(=O)[C@H](CC(N)=O)NC(=O)[C@@H]1CCCN1C(=O)[C@@H]1CCCN1C(=O)[C@H](CCCN=C(N)N)NC(=O)[C@H](Cc1ccc(O)cc1)NC(=O)[C@H](C)NC(=O)[C@@H]1CCCN1C(=O)[C@@H]1CCCN1C(=O)[C@@H](N)[C@@H](C)O)C(=O)N[C@@H](CC(C)C)C(=O)O returned MARV entry inh 12.8% and Lassa entry -2.3%.
Screening C[N+](C)(C)CCOP(=O)([O-])OP(=O)(O)OCC1OC(n2ccc(N)nc2=O)C(O)C1O (stereo not given) returned MARV entry inh 6.1% and Lassa entry -0.6%.

Gathered by group, the compounds so far containing a tert-butyl group (three)
Screening Cc1ccc(-c2cccc(-c3cc(=O)oc4ccc(C(C)(C)C)cc34)c2)cc1 returned MARV entry inh -5.8% and Lassa entry -13.4%.
`CC(C)(C)C(=O)OCOP(=O)(OCOC(=O)C(C)(C)C)C(C)(Oc1ccc(O)cc1)P(=O)(OCOC(=O)C(C)(C)C)OCOC(=O)C(C)(C)C` gave MARV entry inh -14.6% and Lassa entry -2.6%.
For CC(C)(C)OC(=O)N1CCCC(C(=O)Nc2cccc(C(=O)NC3CC3)c2)C1 (stereo not given) the results were MARV entry inh 27.4% and Lassa entry -29.2%.

Further compounds
Cc1ncc(C[n+]2csc(CCOP(=O)(O)O)c2C)c(N)n1 was read as MARV entry inh 33.0%[activator] and Lassa entry 7.9%.
For C[C@@H]1Nc2ccc(Cl)cc2S(=O)(=O)N1 the results were MARV entry inh 7.8% and Lassa entry -3.9%.
`CC(CCC(=O)OC[C@H]1O[C@H](C#Cc2ccccc2)C=C[C@H]1Oc1ccc(C)cc1)=NO[C@@H](C)c1cn([C@H](CO)Cc2ccccc2)nn1` gave MARV entry inh 8.5%[8.59 µM].
CO[C@@H](CCO)C[C@H]1O[C@H](C(=O)OC(C)C)CC[C@@H]1C was read as MARV entry inh 23.0% and Lassa entry -13.9%.
`Cc1csc(C(C)N(C)C(=O)c2cnn(-c3nccc(-c4cc(C)sc4C)n3)c2C)n1` (stereo not given) gave MARV entry inh -7.6% and Lassa entry -13.8%.
For COC(=O)C1=C(C)NC(C)=C(C(=O)OCC(C)C)C1c1ccccc1[N+](=O)[O-] (stereo not given) the results were MARV entry inh -19.8% and Lassa entry inconclusive.
CN(C)C1CSSSC1 was read as MARV entry inh 9.5% and Lassa entry 8.9%.
Screening COc1ccc2c3c(c(=O)oc2c1)[C@H]1O[C@](c2ccsc2)(Cc2ccccc21)O3 returned MARV entry inh -19.8%[8.59 µM] and Lassa entry -8.3%[8.59 µM].
`CN(C)Cc1ccccc1-c1nccc(NC2CC2)n1` gave MARV entry inh -21.6% and Lassa entry -6.1%.
O=C(CCCN1CCN(c2ccc(F)cc2)CC1)NC1c2ccccc2CSc2ccccc21 (stereo not given) was read as MARV entry inh 14.1µM* and Lassa entry -28.7%.
`NC(=O)CS(=O)C(c1ccccc1)c1ccccc1` (stereo not given) gave MARV entry inh 22.8%&-2.7% and Lassa entry 12.7%&-11.1%.
Screening C[C@@H]1CN(Cc2ccc3c(c2)CN(C(=O)CN2CCOc4ccccc4C2)CCO3)C[C@H](C)O1 returned MARV entry inh 6.7% and Lassa entry -9.9%.
CCCCCCCCCCCCC/C=C/[C@@H](O)[C@H](CO)NCCCCCCCC was read as MARV entry inh 9.1%&7.1% and Lassa entry 8.2%&3.8%.

Assay outcomes (PubChem BioAssay)

Only part of the results is shown, so the mix of outcomes need not match the whole.
